CtBP-E1A blk – inhibitors of CtBP/E1A interaction; AlphaScreen GST-E1A/His-CtBP binding, 1536-well; stronger effect = lower value; control for the full effect not named in the record; activity change, % (no concentration beside the values); 340,000 tested, 0.49% active; in the data active means activity change below about -65%; inconclusive means about -30% to -65%; inactive means above about -30%; also: % is scaled to controls: 0 for no effect and ±100 for the full control effect; compound concentration not given in the record
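GST-E1A and His-tagged CtBP (125 nM each as 5X stock) were preincubated with pin-transferred compound for 2 h at 37 °C in the dark, then glutathione donor and nickel acceptor beads were added for 1 h before AlphaScreen reading.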
TRPV1 potentiator – enhances activation of the human vanilloid receptor TRPV1. TRPV1-expressing cells, Fluo-8 calcium influx, capsaicin EC20 potentiation; host cell line not named in the record; control for the full effect not named in the record. 320,000 tested, 0.02% active. potentiation, % at 8.33 µM; active means potentiation above 80%; inconclusive means 30% to 80%; inactive means below 30%; also: 0% is about no effect
Target sequence (Q8NER1 whole entry, looked up): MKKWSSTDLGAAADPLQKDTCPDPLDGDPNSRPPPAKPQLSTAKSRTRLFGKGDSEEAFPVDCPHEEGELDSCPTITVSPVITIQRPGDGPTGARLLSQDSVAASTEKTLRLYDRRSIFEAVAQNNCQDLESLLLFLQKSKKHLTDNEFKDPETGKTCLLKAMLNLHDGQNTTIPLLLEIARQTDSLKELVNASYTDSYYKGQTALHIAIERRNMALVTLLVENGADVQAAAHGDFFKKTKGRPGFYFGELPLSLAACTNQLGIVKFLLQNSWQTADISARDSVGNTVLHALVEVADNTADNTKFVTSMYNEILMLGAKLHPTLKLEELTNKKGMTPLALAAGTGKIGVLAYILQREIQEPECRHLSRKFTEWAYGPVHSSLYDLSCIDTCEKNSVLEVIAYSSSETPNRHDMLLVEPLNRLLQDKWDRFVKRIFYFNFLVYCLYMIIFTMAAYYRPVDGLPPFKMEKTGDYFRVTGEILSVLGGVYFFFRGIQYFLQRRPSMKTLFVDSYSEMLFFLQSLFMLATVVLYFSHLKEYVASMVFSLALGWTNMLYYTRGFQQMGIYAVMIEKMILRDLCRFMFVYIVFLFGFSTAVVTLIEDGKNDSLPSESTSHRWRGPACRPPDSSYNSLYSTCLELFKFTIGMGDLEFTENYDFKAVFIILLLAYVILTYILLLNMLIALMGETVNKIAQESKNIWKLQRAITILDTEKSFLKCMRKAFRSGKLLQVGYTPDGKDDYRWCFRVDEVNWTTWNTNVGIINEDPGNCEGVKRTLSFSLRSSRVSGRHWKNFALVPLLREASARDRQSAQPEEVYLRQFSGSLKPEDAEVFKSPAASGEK
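TRPV1-expressing cells were cultured overnight at 35.5C and loaded with Fluo-8 calcium dye for 40 to 90 min at room temperature. After a 10 s baseline, compound was added and calcium influx was read kinetically for 3 min (ex 480/em 520 nm).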
Sfp inh – inhibitors of Bacillus subtilis Sfp phosphopantetheinyl transferase; Q9F4F7; Potency, µM, without a hit: max response, negative = inhibition, most hits filed as inhibitors; Biochemical Sfp PPTase activity, qHTS; 310,000 tested, 3.5% active; active = well fitted inhibition curve with a large enough effect; inconclusive = small, poorly fitted or top-dose-only effect, or another doubt; inactive = no such curve, though single readings can be large or run the other way;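 also: the enzyme is Sfp with the accession as filed and its product quenches rhodamine fluorescence; potency is read from the fitted curve at half-maximal effect; 0% = enzyme reaction without inhibitor and -100% = no enzyme wells; top concentration of the series not given in the record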
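Fluorescence-quenching assay with 15 nM Sfp, 5 uM rhodamine-CoA and 12.5 uM BHQ-2-labelled ybbR peptide in pH 7.6 Hepes/MgCl2 buffer. Enzyme was pre-incubated with compound for 15 min at room temperature. Rate was taken from the 30-min fluorescence change (525/598 nm).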
gsp antag – antagonizes gsp, the McCune-Albright syndrome mutation; 340,000 tested, 0.4% active; Potency, µM (series often up to 76.9 µM), without a hit: at the highest dose activity change, negative = inhibition, hits mostly inhibitors; gsp-mutant cells, cAMP HTRF, 30 min; control for the full effect not named in the record; active = falling curve of any shape with a large fitted effect; inconclusive = falling curve, mostly with a smaller effect; inactive = flat or rising curve; cell line not stated here;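 also: intracellular cAMP measured with PDE inhibitor Ro 20-1724 present during compound exposure; potency is read from the fitted curve at half-maximal effect; % is scaled to controls: 0 for no effect and ±100 for the full control effect; nearly all actives have a fitted effect of over 65% in size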
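HTRF cAMP read-out (cAMP-d2 plus anti-cAMP antibody-K in lysis buffer, 30 min RT). Before lysis, cells are exposed to compounds with […] for 30 min at 37C in DPBS containing Ca/Mg, BSA and Tween 20.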
gsp ag – gsp mutant agonism; Potency, µM (doses to about 76.9 µM), for inactives: at the top dose activation (cAMP increase), usual class: activators; 340,000 tested, 0.13% active; AID 624287; gsp mutant cells, cAMP HTRF, 30 min; control for the full effect not named in the record; active = well fitted activation curve with a large enough effect; inconclusive = small, poorly fitted or top-dose-only effect, or another doubt; inactive = no such curve, though single readings can be large or run the other way; cell line not stated here;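 also: phosphodiesterase inhibitor Ro 20-1724 added with compounds to block cAMP breakdown; potency is read from the fitted curve at half-maximal effect; nearly all actives have a fitted effect of over 60% in size; about a fifth of the inactives were tested at one dose only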
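Cells in DMEM/10% FBS with G418 were pretreated with compounds in DMSO plus […] (300 uM stock) for 30 min at 37C. cAMP was measured by HTRF (cAMP-d2 plus anti-cAMP antibody-K) after 30 min at room temperature.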
ClpP mod – qHTS Assay for Activators of ClpP; 340,000 tested, 1.9% active; purified B. subtilis ClpP, FRET peptide cleavage, 20 min; Potency, µM (titrated, usually from 57.5 µM), for the others: at the highest dose activity change, negative = active; active = well fitted falling curve with a large enough effect; inconclusive = small, poorly fitted or top-dose-only effect; inactive = no such curve, though single readings can be large or run the other way; also: potency is read from the fitted curve at half-maximal effect; the source files actives as falling curves though it sought activators and does not explain the sign; nearly all actives have a fitted effect of over 65% in size; many hits overshoot -100%
Target sequence (P80244 whole entry, looked up): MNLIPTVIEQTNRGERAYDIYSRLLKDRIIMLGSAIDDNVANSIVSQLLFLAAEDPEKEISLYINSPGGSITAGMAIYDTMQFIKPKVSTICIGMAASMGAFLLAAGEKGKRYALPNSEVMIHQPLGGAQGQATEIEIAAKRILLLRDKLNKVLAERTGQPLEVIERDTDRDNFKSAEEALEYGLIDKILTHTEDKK
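Buffer: 100 mM Tris/HCl pH8, 100 mM KCl, 0.05% low protease BSA, 2.5% glycerol, 0.01% Tween-20. ClpP 10 microg/mL final; 20 min RT; delta FRET normalized to ADEP and DMSO controls.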
Menin MLL FP FL – inhibitors of human menin-MLL interaction, wild-type MLL peptide. 290,000 tested, under 10 active. Fluorescence polarization, fluorescein-MLL peptide displacement from menin. AID 1766. FP activity change, % at 61.4 µM; inconclusive = falling polarisation curve, or a change in total fluorescence; inactive = total fluorescence flat and polarisation flat or rising; no compound was filed as active; the % refers to the polarisation; negative = inhibition;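 also: % of control where 0% means no effect; inhibitors lower the polarisation; unlabelled MLL peptide was the positive control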
An asterisk follows results filed as active; ? = inconclusive; . = not tested or not shown; & = joins results of further samples; [ ] = dose if it differs, or a comment.

Below each compound – CtBP-E1A blk, TRPV1 potentiator, Sfp inh, gsp antag, gsp ag, ClpP mod, Menin MLL FP FL
- O=S(=O)(c1ccc(Cl)s1)N1CCc2ccccc2C1
→ 29, 2, -3%, 5%, -34%[inhibitor], -0.9%, -0.1
- O=c1cc2c(c(-c3ccccc3)n1Cc1ccccc1)[C@@H](CCO)NC2
→ 4, ., ., 3%, ., -19%, .
- CCOc1ccccc1C(=O)NC(C(=O)OCC(=O)NNC(=O)c1cccs1)C(C)C (configuration not stated)
→ -7, ., ., ., 12%, -1.4%, .
- COc1cccc(C(=O)Nc2c(C)n[nH]c2C)c1
→ -11, 6, 7%, 7%, -55%[inhibitor], -1.6%, 4.1
- O=C(CCN1C(=O)/C(=C/c2ccc(F)cc2)SC1=S)N[C@@H](CO)Cc1ccccc1
→ ., 5, 4%, -4%, -22%, 0.4%, -6.2
- COc1ccc(NC(=O)COC(=O)c2ccc(S(=O)(=O)N3CC(C)CC(C)C3)cc2)cc1OC (configuration not stated)
→ -3, ., ., ., -4%, -0.5%, .
- CCN(CC)S(=O)(=O)c1ccc(N2CC(C(=O)NCCc3ccc(Cl)cc3)CC2=O)cc1 (configuration not stated)
→ -6, -2, ., -11%, -7%, -23%, .
- Cc1cccn(Cc2c(F)cccc2Cl)c1=O
→ -2, -11, ?, 10%, -5%[15.4 µM], 0.8%, -0.8
- COC(=O)c1cc(-c2c(-c3ccc4c(c3)OCO4)noc2-c2ccsc2)cc([N+](=O)[O-])c1
→ 0, -14, 8%, 4%, ., -1.0%&1.3%, -4.6
- CCCN(CC(=O)Nc1cc(C)on1)CC(=O)Nc1ccccc1C
→ 11, -12, ., -3%, -20%, -0.4%, .
- CC(C)(C)c1ccc(-n2ncc3c2CCCC3NC(=O)c2csnn2)cc1 (configuration not stated)
→ -1, -1, 0%, -1%, 26%, -2.0%, 1.9
- Cc1cc2c([nH]c3ccccc32)c(C)n1
→ -7, 6, 25%, 3%, -89%[inhibitor], ., -0.8
- Cc1ccc(Cn2c(SCC(=O)NCC3CCCO3)nc3ccsc3c2=O)cc1 (configuration not stated)
→ 0, -13, 4%, -11%, -1%[15.4 µM], ., -1.2
- CCOC(=O)c1cc(C)sc1NC(=O)C(c1ccccc1)c1ccccc1
→ ., 20, -2%, -8%, -12%, ?, -1.3
- O=C(O)CNC(=O)CCN1C(=O)c2ccccc2C1=O
→ 11, -5, 9%, 0%, -14%, 0.1%, 9.4
- COc1cc2ccccc2cc1C(=O)NC1CCC(C)CC1 (configuration not stated)
→ 1, ., ., -28%, 22%, 3.3%, .
- O=C(CNC(=O)c1ccccc1)OCc1nc2ccccc2s1
→ -15, 5, 5%, 4%, ?, -0.6%, 2.5
- CC(C)[C@H](NC(N)=O)C(=O)Nc1ccc(F)c(Cl)c1
→ 12, 11, 20%, 9%, 9%[15.4 µM], ., -0.8
- CCOc1ccc(NC(=O)CN2CCN(CC(=O)Nc3ccc(Cl)c(C(F)(F)F)c3)CC2)cc1
→ -15, 24, 7%, -7%, -6%, 4.8%, 4.4
- Cc1nc(N(C)C2CCCCC2)c2nnn(Cc3ccc(F)cc3)c2n1
→ 7, ., ., ., ?, 3.0%, .
- Cc1noc(/C=C/N(C)C)c1S(=O)(=O)N1CCC(C(=O)NC(C)(C)C)CC1
→ 2, -3, 10%, 8%, ?, -0.4%, .
- Cc1ccc(/C=C/C(=O)OCC(=O)NCCc2ccc(S(N)(=O)=O)cc2)o1
→ -4, ., ., -1%, 13%, ., .
- C[C@@H]1C[C@H]2[C@@H]3CCC4=CC(=O)C=C[C@]4(C)[C@@]3(F)[C@@H](O)C[C@]2(C)[C@@]1(O)C(=O)COP(=O)(O)O
→ 6, -5&4, 1%&13%, 8%, ., -0.4%, -1.4&2.4
- CN(C)CCNC(=O)c1c(NC(=O)c2ccccc2)sc2c1CCCC2
→ ., -2, -4%, -3%, 19%, -2.4%, -1.7
- O=S(=O)(c1ccc(F)cc1)N1CCc2ccccc21
→ ., -4, 8%, 2%, -35%[inhibitor], 0.1%, ?
- Cc1nc(Nc2cccc(C(C)O)c2)c2nnn(Cc3ccccc3F)c2n1 (configuration not stated)
→ -12, -4, 15%, -4%, -6%[15.4 µM], ., -0.1
- CC1CN(C(=O)COC(=O)Cc2c(Cl)cccc2Cl)CC(C)O1 (configuration not stated)
→ 0, ., ., 8%, ?, ., .
- CCS(=O)(=O)Nc1cccc(-c2cc(-c3ccccc3)c3cc(C)ccc3n2)c1
→ -6, 27, -19%, -15%, 1%, 32µM*, 5.2
- CC1(C)CC(=O)C(C=Nc2ccc3cn[nH]c3c2)=C(O)C1
→ 1, -5, 1%, -6%, -30%[inhibitor], 15%, -0.3
- CCc1nnc(NC(=O)C2=NN(C3CCS(=O)(=O)C3)C(=O)CC2)s1 (configuration not stated)
→ -3, -3, -5%, 0%, -9%[15.4 µM], ., 0.1
- CCc1ccccc1NC(=O)CSc1ccsc1[N+](=O)[O-]
→ -12, 13, -11%, 5%, 1%[15.4 µM], -1.8%, 9.3
- CCCOc1ccc(N2C(=O)CC(N(CCc3ccc(OC)c(OC)c3)C(=S)Nc3ccccc3)C2=O)cc1 (configuration not stated)
→ -2, 12, ?, -5%, -3%, 0.8%, 10
- Cc1onc(-c2ccccc2)c1C(=O)N1CC(C)OC(C)C1 (configuration not stated)
→ 1, 5, 16%, 4%, 9%, 0.1%, 6.2
- CN(C)C(CNC(=O)c1sc2ccccc2c1Cl)c1ccco1 (configuration not stated)
→ -7, ., ., ., -50%[inhibitor], -2.1%, .
- CCN(C(=O)CSc1nnc(C)n1Cc1ccccc1)C1CCS(=O)(=O)C1 (configuration not stated)
→ ., 1, -1%, 6%, -10%[15.4 µM], ., -0.8
- CCc1ccccc1OCC(=O)Nc1nnc(C2CC2)s1
→ 0, ., ., ., -19%, 0.2%, .
- O=C(CSc1nnc(-c2ccc(F)cc2)c2ccccc12)NCC1CCCO1 (configuration not stated)
→ -14, 3, -9%, -10%, -5%, -3.0%, 4.2
- [C-]#[N+][C@H](O[C@@H]1O[C@H](CO)[C@@H](O)[C@H](O)[C@H]1O)c1ccccc1
→ 1, ., ., 8%, ., 0.6%, .
- CCOc1ccc(S(=O)(=O)NCCCl)cc1
→ 4, -3, -1%, -3%, -6%[15.4 µM], ., 2.5
- Cc1cc(-c2nn(-c3ccccc3F)cc2CN2CCC(C(N)=O)CC2)c(C)s1
→ ., 0, 6%, 10%, 1%, -1.5%, -0.8
- Cc1ccc(C2=Nc3cccnc3C(c3ccccc3)=NN2)cc1
→ -8, -7, 5%, -28%, -14%[15.4 µM], -13%, 18
- N#CC1=C(N)C(C#N)(C#N)[C@H](c2cccnc2)[C@H]2CN(C(=O)OCc3ccccc3)CC=C12
→ ., 6, -20%, 4%, -22%, -1.1%, ?
- COc1ccccc1NC(=S)NC(=O)C(C)(C)C
→ 1, 1, -3%, 4%, 7%, -0.2%, 3.5
- C[C@@]12C(=O)Nc3ccccc3C(=O)N1[C@H]1c3cc(Br)ccc3OC[C@@H]1[C@@H]2c1ccccc1
→ -9, 22, ., -14%, ., -11%, .
- Cc1cc2nc(C3CCN(Cc4nnnn4Cc4cccs4)CC3)[nH]c2cc1C
→ -6, 3, 17%, -19%, 21%, -3.0%, 0.8

Following part.
Assay codes: A = CtBP-E1A blk; B = TRPV1 potentiator; C = Sfp inh; D = gsp antag; E = gsp ag; F = ClpP mod; G = Menin MLL FP FL
> Cc1ccc(S(=O)(=O)N2CCN(C(=O)CNC(=O)c3ccc(Cl)cc3)CC2)cc1
  A: -9 | B: . | C: . | D: -11% | E: -8%[15.4 µM] | F: -0.9% | G: .

> CC(=O)Nc1ccc(-c2csc(NC(=O)CCCc3cccs3)n2)cc1
  A: 1 | B: 13 | C: -31% | D: -1% | E: -65%[inhibitor] | F: . | G: -1.0

> c1ccc(COc2ccc(CNCc3cccnc3)cc2)cc1
  A: -17 | B: -13 | C: 15% | D: . | E: 6%[15.4 µM] | F: . | G: -1.8

> CCCC(=O)NC(=S)Nc1ccccc1C(F)(F)F
  A: 6 | B: -14 | C: 9% | D: -7% | E: ? | F: 0.8% | G: -0.5

> CC(=O)C[C@@H](O)CC(=O)[C@@H]1OC(=O)CCCCCCCc2ccccc21
  A: -4 | B: . | C: . | D: 8% | E: -12% | F: -1.3% | G: .

Rewritten with tabs: part of the list above.
SMILES	CtBP-E1A blk	TRPV1 potentiator	Sfp inh	gsp antag	gsp ag	ClpP mod	Menin MLL FP FL
COc1ccccc1NC(=S)NC(=O)C(C)(C)C	1	1	-3%	4%	7%	-0.2%	3.5
C[C@@]12C(=O)Nc3ccccc3C(=O)N1[C@H]1c3cc(Br)ccc3OC[C@@H]1[C@@H]2c1ccccc1	-9	22	.	-14%	.	-11%	.
Cc1cc2nc(C3CCN(Cc4nnnn4Cc4cccs4)CC3)[nH]c2cc1C	-6	3	17%	-19%	21%	-3.0%	0.8
Cc1ccc(S(=O)(=O)N2CCN(C(=O)CNC(=O)c3ccc(Cl)cc3)CC2)cc1	-9	.	.	-11%	-8%[15.4 µM]	-0.9%	.
CC(=O)Nc1ccc(-c2csc(NC(=O)CCCc3cccs3)n2)cc1	1	13	-31%	-1%	-65%[inhibitor]	.	-1.0
c1ccc(COc2ccc(CNCc3cccnc3)cc2)cc1	-17	-13	15%	.	6%[15.4 µM]	.	-1.8
CCCC(=O)NC(=S)Nc1ccccc1C(F)(F)F	6	-14	9%	-7%	?	0.8%	-0.5
CC(=O)C[C@@H](O)CC(=O)[C@@H]1OC(=O)CCCCCCCc2ccccc21	-4	.	.	8%	-12%	-1.3%	.

High-throughput results (PubChem)
